PINK1 expr mod = PINK1 expression modulation | PINK1 immunofluorescence, high-content cytometry, 24 h | actives 0.2% (n = 410,000) | Potency, µM (doses to about 76.6 µM), without a hit: at the top dose activation (PINK1 increase), actives largely listed as activators; active = well fitted activation curve with a large enough effect; inconclusive = small, poorly fitted or top-dose-only effect; inactive = flat fitted curve, though single readings scatter; cell line not stated here;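 note: potency is the fitted concentration of half-maximal effect; % of control where 0% means no effect; nearly all actives have a fitted effect of over 65% in size; a mitochondrial uncoupler was the plate control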
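Measures PINK1 amount and localization on or inside mitochondria by immunofluorescence. Stable cells get compounds at 5 concentrations for 24 hours before fixation and staining; CCCP controls included.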
TRPML1 ag = human mucolipin-1 channel agonism. Q9GZU1. TRPML1-expressing cells, Ca2+ dye fluorescence, FDSS; host cell line not named in the record; reference of the full effect not given here. activation, % (concentration not given with the values). actives 0.12% (n = 410,000); in the data active = activation above about 50%; inconclusive = about 30% to 50%; inactive = below about 30%; note: 0% is about no effect; the text of the record puts the active cut at 80%
Target sequence (Q9GZU1 whole entry, looked up): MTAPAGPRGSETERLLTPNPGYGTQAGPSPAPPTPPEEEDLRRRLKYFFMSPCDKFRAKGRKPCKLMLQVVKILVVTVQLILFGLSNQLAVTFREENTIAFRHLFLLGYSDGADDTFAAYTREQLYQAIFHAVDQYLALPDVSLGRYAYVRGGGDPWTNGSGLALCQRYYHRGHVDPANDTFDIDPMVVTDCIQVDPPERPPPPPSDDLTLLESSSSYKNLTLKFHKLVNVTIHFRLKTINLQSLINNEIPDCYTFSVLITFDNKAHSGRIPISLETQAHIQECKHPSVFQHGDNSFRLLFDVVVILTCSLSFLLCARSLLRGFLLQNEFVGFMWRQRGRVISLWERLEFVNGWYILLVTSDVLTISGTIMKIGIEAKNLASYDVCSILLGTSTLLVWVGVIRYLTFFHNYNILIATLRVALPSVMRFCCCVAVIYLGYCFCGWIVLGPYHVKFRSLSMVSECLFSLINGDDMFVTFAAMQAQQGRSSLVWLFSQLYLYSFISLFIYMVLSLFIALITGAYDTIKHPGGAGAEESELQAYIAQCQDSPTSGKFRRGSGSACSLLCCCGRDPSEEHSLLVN
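In this qHTS format, compounds were pin-transferred onto Ca8-dye-loaded TRPML1-DL cells induced with Tet overnight, and intracellular Ca2+ fluorescence was recorded kinetically for 110 s after a 10 s baseline. A subsequent 4uM final 54-4 (EC80) addition followed by a second 110 s read served as the antagonist phase.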
Six1-Eya2 inh = blocks human Six1 binding to Eya2; activity change, % (no concentration beside the values); AlphaScreen GST-Six1/His-Eya2 binding, biochemical; stronger effect = lower value; control for the full effect not named in the record; Q15475+O00167; actives 0.56% (n = 360,000); AID 651725; in the data active = activity change below about -65%; inconclusive = about -30% to -65%; inactive = above about -30%; note: % is set by controls: 0 for no effect and ±100 for the full control effect; compound concentration not given in the record
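Homogeneous AlphaScreen proximity assay pairing GST-Six1 with His-tagged Eya2 (added as 5X mix: 250 nM and 500 nM) in 50 mM Tris pH 8.0, 300 mM NaCl, 1 mM TCEP. Glutathione donor and nickel acceptor beads; 1 h, 37 °C, dark.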
TRPML1 blocker = human mucolipin-1 channel inhibition | activity change, negative = inhibition, % (concentration not given with the values) | Q9GZU1 | AID 624415 | TRPML1-inducible cells, Ca2+ dye fluorescence, FDSS; stronger effect = lower value; inhibition of EC80 agonist-evoked calcium signal | actives 0.02% (n = 390,000); in the data active means activity change below about -50%; inconclusive means about -30% to -50%; inactive means above about -30%;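 note: stimulus is agonist 54-4 at its EC80 concentration; % is set by controls: 0 for no effect and ±100 for the full control effect; compound concentration not given in the record; the text of the record puts the active cut at -80%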
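Tet-induced TRPML1-DL cells loaded with Ca8 no-wash calcium dye were read kinetically on FDSS. Compound addition was followed by EC80 agonist 54-4 (4 uM final); inhibition was read over 110 s.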
D2 potentiator = positive allosteric modulators of human D2 dopamine receptor | P14416 | DiscoveRx D2 beta-arrestin cells, luminescence, 90 min; 100% = 57 uM dopamine signal | potentiation, % (no concentration beside the values) | actives 0.23% (n = 360,000); active = potentiation of 50% or more; inconclusive = 30% to 50%; inactive = 30% or less;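 note: compound concentration not given in the record; tested on top of an EC20 dose of dopamine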
Target sequence (P14416 whole entry, looked up): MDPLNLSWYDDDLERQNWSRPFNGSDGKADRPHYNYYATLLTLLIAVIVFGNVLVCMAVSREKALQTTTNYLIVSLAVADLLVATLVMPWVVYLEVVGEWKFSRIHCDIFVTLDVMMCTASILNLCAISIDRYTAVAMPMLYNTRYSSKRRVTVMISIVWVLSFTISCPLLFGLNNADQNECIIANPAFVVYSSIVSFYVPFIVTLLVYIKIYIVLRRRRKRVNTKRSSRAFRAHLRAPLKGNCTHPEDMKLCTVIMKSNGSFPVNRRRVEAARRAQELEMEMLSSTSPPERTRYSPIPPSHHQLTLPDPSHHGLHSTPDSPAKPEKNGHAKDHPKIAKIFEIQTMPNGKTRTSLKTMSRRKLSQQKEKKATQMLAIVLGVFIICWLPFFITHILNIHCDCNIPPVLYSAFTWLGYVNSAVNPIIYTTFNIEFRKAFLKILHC
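D2 cells co-treated with compound plus 50 nM dopamine (EC20) for 90 min at 37 deg C to detect potentiation. Beta-arrestin recruitment was read as enzyme-fragment luminescence after 1 h at ambient temperature. Full response was set by 57 uM dopamine.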
D2 ag = agonists of human D2 dopamine receptor (beta-arrestin); activation, % (no concentration beside the values); DiscoveRx PathHunter D2 beta-arrestin, luminescence, 90 min; 100% = 57 uM dopamine signal; actives 0.084% (n = 360,000); in the data active = activation above about 40%; inconclusive = about 15% to 40%; inactive = below about 15%; note: compound concentration not given in the record; the text of the record calls up to 30% inactive
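Agonist mode: compounds alone added to overnight-plated D2 PathHunter cells for 90 min at 37 C, with 57 uM final dopamine (EC100) defining full response. Beta-arrestin recruitment detected by chemiluminescent reagent, read after 1 h at ambient temperature.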
The depositor's hits bear a star; ? = inconclusive; . = no result given; & = joins results of further samples; [ ] = dose if it differs, or a comment.

mol	PINK1 expr mod	TRPML1 ag	Six1-Eya2 inh	TRPML1 blocker	D2 potentiator	D2 ag
COc1cc(N=Nc2c(O)c3ccccc3[nH]c2=O)c(OC)cc1N=Nc1ccccc1	0.6%	0.9	-13	0	3	2.2
CCN(CC(=O)Nc1ccc(OC)cc1)CC(=O)Nc1ccc2c(c1)OCO2	-2.3%	-0.5	-10	-3	2	-1.9
CCc1nc(SCc2ccc(OC)cc2)n[nH]1	-0.3%	.	4	.	-8	-1.3
Cc1cc2nc(CCN(Cc3cccnc3)C(=S)Nc3ccccc3)[nH]c2cc1C	.	0.2	-10	-1	-20	0.8
CCSc1nc2ccccc2n1C(=O)/C=C/c1ccc(OC)c(OC)c1	1.5%	0.1	-2	-16	2	-4.6
N#C/C(=C\c1ccncc1)C(N)=O	0.6%	0.6	-2	-3	-5	-1.1
CCC(C(=O)OCC(=O)Nc1cc(OC)ccc1OC)c1ccccc1 (stereo unspecified)	1.5%	0.2	-1	8	-3	0.6
CCc1ccccc1NC(=O)NNS(=O)(=O)c1cc(C)ccc1C	-0.7%	1.7	8	-7	-11	-0.6
O=C(Nc1ccc(N2CCCC2)cc1)c1ccccc1[N+](=O)[O-]	14%	.	-3	.	2	0.7
COc1ccc(-c2cc(C(F)F)n3ncc(C(=O)N4CCN5CCCC5C4)c3n2)cc1 (stereo unspecified)	1.2%	1.4	0	14	-37	-1.3
O=C(CSc1nnc(CNC(=O)c2c(F)cccc2Cl)o1)NCc1ccc(F)cc1	6.9%	-1.2	5	25	-9	-9.1
C=CCSc1nccc(-c2cc(Cl)sc2Cl)n1	12%	1.3	40	-1	3	-5.5
O=C(CNC(=O)c1nc[nH]c1C(=O)N1CCN(c2ccccc2)CC1)OCc1ccccc1	0.5%	0.0	2	6	-5	0.0
COc1ccc(N2CCN(Cc3nnc(-c4ccc5c(c4)OCO5)o3)CC2)cc1	-1.5%	-1.0	.	-1	.	.
O=C(Nc1ccc2nc3n(c(=O)c2c1)CCCCC3)c1cc([N+](=O)[O-])ccc1F	-1.5%	-0.5	-12	65	9	1.3
COc1ccc(C(=O)N2CCN(c3ccccn3)CC2)cc1	.	0.3	5	-3	-11	-0.9
O=c1[nH]cnc2c1ncn2C1OC(CO)C(O)C1O (stereo unspecified)	2.8%&1.4%&0.6%	0.5	8	1	-8	-3.6
CN(C)S(=O)(=O)c1ccc2c(c1)c(=O)c(C(=O)N1CCN(c3cccc(Cl)c3)CC1)cn2C	1.1%	-0.8	.	-15	.	.
CC[C@@]12C(=O)N(c3cccc(F)c3)C(=O)N1[C@H](c1cccc(C)c1)[C@@H]1C(=O)N(Cc3ccccc3)C(=O)[C@@H]12	-0.5%	-0.6	1	0	-5	-1.9
CCc1ccc(S(=O)(=O)NC(=S)Nc2ccccc2)cc1	0.3%	-0.3	-3	9	-6	-2.9
CC(C)CC(=O)N1CCN(S(=O)(=O)c2ccc(C3CCCCC3)cc2)CC1	0.8%	2.2	8	21	-3	-1.6
CN(C)c1cccc(C(=O)NCc2ccc(Cl)cc2)c1	0.5%	-0.6	5	-5	-6	-0.5
Cc1ccc2c(CC(=O)N3CCc4ccccc43)coc2c1	6.1%	0.2	21	-11	-1	0.2
O=C(NNC(=O)C1CC=CCC1)c1ccccc1Br (stereo unspecified)	-1.9%	1.5	-7	24	0	-1.0
CC(=O)Nc1ccc(-c2nnc(SCc3c(C)cc(C)cc3C)n2C)cc1	-1.8%	0.3	-3	-1	-5	-0.5
O=C(NCC1CCCO1)c1ccc2[nH]c3c(c2c1)CCCC3 (stereo unspecified)	0.4%	1.3	0	15	-14	-2.2
COc1ccc(S(=O)(=O)N(C)C)cc1NC(=O)[C@H](Cc1ccccc1)N1C(=O)c2ccccc2C1=O	3.4%	-0.5	-8	24	-9	-5.7
COC(=O)C(=C/C(C)=C/c1cccs1)C(=O)OC	-0.2%	2.8	3	-4	-4	-3.8
Cc1ccc2[nH]c(CSc3nnc(NC(=O)c4ccccc4F)s3)cc(=O)c2c1	0.6%	1.5	.	1	.	.
C/C(=C1/SC(=S)N(CCC(=O)O)C1=O)c1ccc(O)cc1	-2.5%	0.5	-14	-18	?	4.4
CSc1nnc(N2C(=O)C(O)=C(C(=O)c3ccco3)C2c2ccccc2)s1 (stereo unspecified)	0.1%	0.2	-3	-3	-10	-2.1
O=C(NCCS(=O)(=O)N1CCN(c2ccccc2F)CC1)c1ccc(Br)o1	-2.0%	0.5	-1	-4	-11	-4.8
COc1cc(C#Cc2c(-c3cncn3C)n(C)c3ccc(-c4cnc(N5CCOCC5)nc4)cc23)cc(OC)c1	-0.2%	0.4	-22	-14	-7	-1.7
CN1CCN(CCCNC(=O)CN2C(=O)COc3ccccc32)CC1	-2.4%	0.0	-1	30	0	-7.0
CC(C)c1ccc(N2C(=O)CSC23C(=O)N2CCCc4cccc3c42)cc1 (stereo unspecified)	?	1.1	1	11	-18	-4.9
CCc1ccccc1NC(=O)C1CCN(C(=O)c2cccs2)CC1	2.1%	0.6	9	17	-9	-3.6
COc1ccccc1CC(=O)Nc1ccc2nc(Nc3cccc(C(F)(F)F)c3)cc(C)c2c1	1.0%	-0.7	.	-11	.	.
O=C(c1c(F)cccc1F)N1CCCC(c2nc(-c3ccc(Cl)cc3)no2)C1 (stereo unspecified)	2.1%	2.8	3	28	0	-0.7
CCOC(=O)c1cccc(NS(=O)(=O)c2cc(-c3cnc(C)o3)ccc2OC)c1	0.4%	1.2	.	21	.	.
Clc1ccc(-c2nc(-c3cnccn3)no2)cc1	4.2%	-0.2	3	12	-14	-0.4
COc1ccc(-c2nnc(SCC(=O)Nc3cc(F)ccc3C)o2)cc1	3.6%	1.3	2	26	-1	-1.1
O=C(CC(SCCO)c1ccc([N+](=O)[O-])cc1)c1ccco1 (stereo unspecified)	11%	2.5	7	-11	-6	5.8
CCN(CCCNC(=O)c1cc2c(=O)n(C)c3ccccc3c2s1)c1ccccc1	1.2%	0.8	.	-11	.	.
C=CC[C@H](CC(=O)N[C@H](CO)Cc1ccccc1)C(=O)N[C@@H](COC(=O)[C@H](CC=C)CC(=O)OC(C)(C)C)Cc1c[nH]c2ccccc12	20%	0.8	-7	-9	4	-3.2
CC(=O)c1nnn(-c2ccccc2C#N)c1C	-0.7%	-0.1	-7	-2	-6	-2.0
Cc1nc(N/N=C/c2ccc(Br)cc2)cc(N2CCOCC2)n1	3.3%	0.6	-5	15	0	9.3
CC(=O)Nc1cccc(NC(C)=O)n1	-0.8%	0.3	5	-5	-6	-0.3
COc1ccc(NC(=O)C2CCCNC2)cc1OCC(C)C (stereo unspecified)	-2.0%	0.0	-29	-27	-2	2.7
CC(=O)N(C)c1ccc(NC(=O)c2cnn(C)c2)cc1	-0.9%	0.0	8	-15	-10	-1.2
COc1ccc(CNC(=O)CN2C(=O)C(c3ccccc3)Oc3cccnc32)cc1 (stereo unspecified)	1.6%	-0.3	5	17	-4	-2.7
O=C(OCC(=O)N1CCN(C(=O)c2ccco2)CC1)c1cc(-c2cccc(Br)c2)nc2ccccc12	-0.9%[38.3 µM]	1.0	-11	30	-5	-1.5
O=C(Nc1cccc(F)c1)C1C2C=CC3(CN(CCCN4CCOCC4)C(=O)C13)O2 (stereo unspecified)	4.7%	0.4	-3	47	-6	-4.5
CCCCCc1cc(=O)oc2c(C(CCN(CC)CC)c3ccc(N(C)C)cc3)c(OC)cc(OC)c12 (stereo unspecified)	-0.8%	-0.1	?	-10	-20	-2.6
C/C(=N\NC(=O)CN(c1ccc(C)cc1)S(C)(=O)=O)c1cccs1	-0.8%	-0.1	2	-4	-37	-3.5
O=C(CSc1nnc2c(n1)[nH]c1ccccc12)Nc1cccc(S(=O)(=O)N2CCOCC2)c1	29%	3.3	-12	-10	-7	-1.1
COc1ccc2nc(NC(=O)c3nc(S(=O)(=O)Cc4ccccc4)ncc3Cl)sc2c1	-1.0%	2.0	.	15	.	.
CC(C)NC(=O)CN1C(=O)CSc2ccc(S(=O)(=O)N3CCCC3)cc21	-1.5%	-0.2	1	9	-9	-6.3
O=C(C(Cc1ccccc1)N1C(=O)C2C3CCC(C3)C2C1=O)N1CCCCC1 (stereo unspecified)	5.7%[38.3 µM]	4.8	5	11	-7	0.3
O=C(CN1CCN(c2cccc(Cl)c2)CC1)Nc1ccc([N+](=O)[O-])cc1C(=O)Nc1ccccc1F	2.2%	0.3	-6	-2	-6	-4.7
CCOC(=O)c1c(NC(=O)CN2CCN(C(=O)c3ccco3)CC2)sc(C(N)=O)c1C	1.8%	1.2	?	-7	-5	1.0

Following part
mol	PINK1 expr mod	TRPML1 ag	Six1-Eya2 inh	TRPML1 blocker	D2 potentiator	D2 ag
CCc1nnc(NC(=O)CSc2nc(N)c(NC(=O)c3ccc(OC)cc3)c(=O)[nH]2)s1	0.7%	0.6	-5	3	-8	-3.4
COc1ccc(CNC(=O)c2cccc(C)c2[N+](=O)[O-])cc1	3.1%	-0.1	11	8	-10	0.7
CCN(CC)CCCNC(=O)Cc1csc2nc(-c3ccc(Cl)cc3)cn12	2.0%	-0.5	.	-13	.	.
COc1ccc(Cl)cc1NC(=O)CCc1ccccc1	-1.2%	1.7	32	16	-20	-4.1
O=C(NCc1ccccc1)C(c1ccccc1)N(Cc1ccc2c(c1)OCO2)C(=O)Cc1cccs1 (stereo unspecified)	-2.4%	0.1	-9	33	-18	8.9
Cc1cccc(NC(=O)CN2C(=O)N/C(=C\c3ccccc3OCc3ccc(C(=O)O)cc3)C2=O)c1	6.0%	1.6	-13	16	4	-0.8
Cc1cccc(CCN2C(N(C)C)=NC[C@@H]2CC(C)C)c1	-0.2%	-0.4	5	-16	-7	-0.9
O=C(OCC(=O)C12CC3CC(CC(C3)C1)C2)c1ccc(O)cc1	4.3%	-0.4	-6	-6	-16	11
Cc1cc(NS(=O)(=O)c2ccc(NC(=O)/C=C/c3cccc(Cl)c3)cc2)no1	0.1%	0.4	-24	-1	14	-4.0
COc1ccc(N2CCN(C(=O)CNC(=O)c3ccc(Br)o3)CC2)cc1	-0.7%	0.0	-10	12	6	4.0

Complete entries from above. Values in the order: PINK1 expr mod	TRPML1 ag	Six1-Eya2 inh	TRPML1 blocker	D2 potentiator	D2 ag
`COc1ccc(CNC(=O)c2cccc(C)c2[N+](=O)[O-])cc1` across the screens: 3.1%	-0.1	11	8	-10	0.7
`Cc1cc(NS(=O)(=O)c2ccc(NC(=O)/C=C/c3cccc(Cl)c3)cc2)no1` across the screens: 0.1%	0.4	-24	-1	14	-4.0
`O=C(OCC(=O)C12CC3CC(CC(C3)C1)C2)c1ccc(O)cc1` across the screens: 4.3%	-0.4	-6	-6	-16	11
`COc1ccc(Cl)cc1NC(=O)CCc1ccccc1` across the screens: -1.2%	1.7	32	16	-20	-4.1
